Autofluor counter: compound fluorescence in toxin protease inhibitor counterscreen | fluorescence intensity (no concentration beside the values) | compound autofluorescence counterscreen, microsphere flow cytometry; stronger effect = higher value | 360,000 compounds, 3.1% hits | AID 624483;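 active means at least 3 SD above the mean of all compounds, about 16000 in these data; inconclusive means too few beads counted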;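 further: 100 nL of 1 mM stock went into each well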
PrP UTR inh: suppresses PrP 5' UTR mRNA reporter expression; 340,000 compounds, 0.35% hits; inhibition, % (concentration not given with the values); cell-based PrP 5' UTR mRNA reporter, plate reader;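 active means every replicate at 50% or more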;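 further: 0 = median of the neutral control wells; tested in H4 reporter cells; numbers are from one replicate; inactives centre near -14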
Sa ugtP lethal: compounds lethal to S. aureus RN4220 ugtP deletion mutant; growth inhibition, % (concentration not given with the values); 330,000 compounds, 0.54% hits; OD600 growth, 16 h; some inactives read as strong as hits;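 active means z-score under -3 and OD600 up to 0.15 on both plates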;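 further: plate controls were untreated wells for no effect and antibiotic for full effect; wells of about 80 µL received 100 nL stock; the first replicate is given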
Sa RN4220 lethal: S. aureus RN4220 growth inhibition. 330,000 compounds, 0.33% hits. AID 1259311. OD600, 16 h. inhibition, % (concentration not given with the values);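 active means z-score of -3 or lower and OD600 up to 0.18 on both plates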;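 further: plate controls were untreated cells for no effect and reference antibiotic for full effect; stock transfer was 100 nL into about 80 µL; one replicate is shown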
Mtb hypoxia inh: reduces hypoxia-regulated biosensor signal in M. tuberculosis; M. tuberculosis hypoxia-regulated fluorescent reporter, fluorescence; 300,000 compounds, 0.1% hits; AID 1159583; fluorescence inhibition, % (concentration not given with the values);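 active means 35 to 45% if threefold the growth effect, above 45% if 1.5-fold the growth effect; inactive means the rest, general growth blockers included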;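 further: wells of about 50 µL received 100 nL stock; 0% = vehicle wells and 100% = reference inhibitor wells; whole bacteria with a GFP reporter of the hypoxia response; strong numbers were not always called active; many hits fall short of the cut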
BJeLR viability: BJeLR cell viability loss; AID 1554; 300,000 compounds, 0.17% hits; inhibition, % (no concentration beside the values); BJeLR (HRASV12) viability, CellTiter-Glo ATP luminescence, 48 h; reference of the scale not given here;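 active means replicate mean above 50%; inconclusive means above 50% but judged a plate artefact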;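 further: 50 nL library stock added to about 25 µL; numbers are from one replicate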
Mtb hypoxia inh growth: further read-out of Mtb hypoxia inh, marked with its call; growth inhibition, %; measured here: M. tuberculosis growth (absorbance);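 0% = vehicle and 100% = reference antibiotic; read after six days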
Active calls of the source: *; ? = inconclusive; nt = not tested or not shown.

SMILES	Autofluor counter	PrP UTR inh	Sa ugtP lethal	Sa RN4220 lethal	Mtb hypoxia inh	Mtb hypoxia inh growth	BJeLR viability
Cn1c(SCC(=O)NCc2ccc(F)cc2)nc2ccccc21	4989	-7.7	0.4	-1.6	1.9	6.7	5.5
C=CCN1c2ccccc2[C@]23CC(C(=O)OC)N(C(=O)OCC)C2=NC(C(=O)OC)=C(C(=O)OC)C13 (some centres not stated)	nt	nt	6.6	3.4	2.5	-0.2	nt
O=C(O/N=C(/c1ccccc1)c1ccncc1)c1ccc(F)cc1	3968	-42.9	nt	nt	nt	nt	-9.5
COc1ccc(/C=N/NC(=O)CNC(=O)c2ccncc2)cc1OC	3701	-26.8	nt	nt	nt	nt	-1.8
COC(=O)c1ccc(CNC(=O)c2sccc2-c2ccccc2)cc1	4674	-5.0	1.9	-2.2	8.7	4.9	2.3
COc1ccc(NC(=O)c2ccc(-c3ccc([N+](=O)[O-])cc3)o2)cc1OC	10213	-12.3	-3.6	-1.7	1.1	13.4	-5.7
C=CCn1c(=O)c2ccccc2n2c(SCC(=O)N3CCCc4ccccc43)nnc12	3191	-20.3	5.4	4.0	4.3	14.8	4.8
CCc1ccc(-n2ccc(=O)c(C(=O)O)n2)cc1	4144	nt	8.0	-1.4	-5.1	-1.5	-1.1
COc1ccc(C)cc1N(C(=O)c1cccc(F)c1)c1nc2ccccc2s1	10862	18.0	55.0	-5.5	-0.2	-9.9	nt
COc1ccc(/C=N/n2c(C)nc3ccccc3c2=O)cc1	3495	-40.5	nt	nt	nt	nt	-2.8
CCC(=NNC(=O)c1ccc(Br)cc1)c1ccccc1	nt	nt	6.2	3.7	6.5	6.9	nt
CCOc1ccc(-n2c(SCC(=O)Nc3ccccc3C)n[nH]c2=O)cc1	7701	-22.7	11.3	2.7	4.2	4.1	-1.5
O=C(c1cc2c(ccc3ccccc32)o1)N1CCN(c2ncc(C(F)(F)F)cc2Cl)CC1	4525	-9.8	-0.2	-1.9	nt	nt	-1.0
CCn1c(SCC(=O)NC2CCCc3ccccc32)nnc1-c1ccncc1 (configuration not stated)	2638	0.4	2.5	-0.6	-1.4	-2.1	12.3
COc1ccc2c(=O)cc(-c3cccnc3)oc2c1OC	3639	53.8*	2.2	1.6	9.0	-3.3	7.6
CCn1c(=O)c(C(=O)NCCc2ccccc2)c(O)c2ccccc21	2980	-17.7	5.7	-7.3	4.6	2.8	6.0
CCC(NC(=O)Cn1cnc2c(=O)n(C)c(=O)n(C)c21)c1ccccc1 (configuration not stated)	5734	-6.1	-0.5	0.0	6.1	-2.5	3.3
N#Cc1c(SCC(=O)O)nc(N2CCCCC2)c2c1CCCC2	3074	-8.0	-3.1	12.9	nt	nt	-0.3
COc1cccc(-n2cn[nH]c2=S)c1	6817	-7.2	-11.1	-2.1	-2.5	1.1	4.3
O=C(NC1(C(F)(F)F)NC(=O)N(C2CCCC2)C1=O)C1CC1 (configuration not stated)	4363	-17.8	-0.7	-2.5	nt	nt	3.9
Cc1cc(CN2CCC(n3nccc3NC(=O)c3ccccc3Cl)CC2)cc(C)c1O	5198	4.1	-6.0	2.5	-12.8	-12.5	-1.0
COc1ccc(CCNC(=O)c2ccc3c(c2)OCO3)cc1	5785	-32.5	1.5	0.8	nt	nt	3.8
Cc1ccc2c(CC(=O)OCC(=O)Nc3ccc(Cl)cn3)coc2c1	9182	-3.0	-2.5	5.8	6.2	-4.9	-6.5
COCCCNC(=S)N1CCCN(c2nc3cc(C)ccc3cc2C#N)CC1	4231	-7.0	-12.1	1.7	5.0	21.2	-1.5
COc1ccc(S(=O)(=O)N=C2C=C(C)C(=O)C(C)=C2)cc1	9289	-16.7	1.8	1.9	-7.4	3.1	0.6

Of the compounds above, 2 have a CF3 group:
SMILES	Autofluor counter	PrP UTR inh	Sa ugtP lethal	Sa RN4220 lethal	Mtb hypoxia inh	Mtb hypoxia inh growth	BJeLR viability
O=C(c1cc2c(ccc3ccccc32)o1)N1CCN(c2ncc(C(F)(F)F)cc2Cl)CC1	4525	-9.8	-0.2	-1.9	nt	nt	-1.0
O=C(NC1(C(F)(F)F)NC(=O)N(C2CCCC2)C1=O)C1CC1 (configuration not stated)	4363	-17.8	-0.7	-2.5	nt	nt	3.9

(cont.)
SMILES	Autofluor counter	PrP UTR inh	Sa ugtP lethal	Sa RN4220 lethal	Mtb hypoxia inh	Mtb hypoxia inh growth	BJeLR viability
O=C(NN=Cc1ccc2c(c1)OCO2)C(=O)N1CCCC1	nt	nt	5.0	0.3	-12.1	-1.0	nt
Cn1c(CNc2ccccc2)cc(=O)n(C)c1=O	11346	-23.1	5.9	0.9	-0.3	4.1	nt
Cc1cc(C(=O)COC(=O)c2ccc(N)c([N+](=O)[O-])c2)c(C)n1-c1ccc2c(c1)OCO2	2059	-9.6	9.8	3.9	17.5	16.6	8.7
O=C(NCCc1ccccc1)C1CCN(S(=O)(=O)c2ccc(-c3nn[nH]n3)cc2)CC1	3284	-14.4	0.8	3.5	8.4	-3.3	-0.3
CCOCCn1c(CN2CCCCC2)nc2c1c(=O)n(C)c(=O)n2C	6894	-32.6	7.3	9.8	-4.2	-21.1	-3.3
O=C(CNC(=O)c1ccco1)NN=Cc1cc(Br)ccc1O	nt	nt	-5.2	4.3	12.9	5.3	nt
CCCCOc1ccc(/C(O)=C2/C(=O)C(=O)N(CCN(C)C)C2c2ccc(O)c(OC)c2)cc1 (configuration not stated)	9830	-29.6	8.6	3.0	2.7	5.1	6.2
Cc1cccc(CN2CCN(CC(=O)N3CCCC3)C2=O)c1	8439	-12.9	4.4	5.3	8.3	6.9	-13.3
C=CCN1C(=O)CSC1=Nc1ccc(O)cc1	15553	5.1	1.2	6.5	12.6	7.7	-16.9
CCCCn1c(=NC(=O)c2cccnc2)c(C(=O)OCC)cc2c(=O)n3ccccc3nc21	7001	2.4	1.3	2.4	-85.3	-23.5	1.7
COC(=O)C1=CN(CC2CCCO2)C=C(C(=O)OC)C1c1cccc(O)c1 (configuration not stated)	3793	-23.0	-0.8	1.9	5.5	-1.0	1.8
COC(=O)CC1c2cc(F)ccc2S(=O)(=O)N1Cc1ccccc1OC (configuration not stated)	nt	nt	-10.9	4.5	2.9	6.3	nt
CCC(=O)N1CCc2cc(S(=O)(=O)NCCC(=O)Nc3cc(C)cc(C)c3)ccc21	9831	-3.9	5.7	4.2	3.4	-0.3	-15.0
Oc1ccc2c(c1)C1CCCC1(N1CCOCC1)O2 (configuration not stated)	3915	-15.8	10.9	5.3	0.4	-5.5	4.5
O=C(O)CCCc1ccc2ccc3cccc4ccc1c2c34	3028	-23.1	20.1	7.7	10.0	-5.4	4.5
CCN(CC)CCCN(Cc1cc2cc3c(cc2[nH]c1=O)OCO3)C(=S)NCCCN(C)C	4190	-14.7	7.4	1.9	1.2	-4.9	-2.3
COCC(=O)OCC(=O)Nc1ccc(Cl)cc1[N+](=O)[O-]	4333	-15.1	12.6	4.9	-5.1	-0.3	-1.4
C=CCN(C(=O)c1csnn1)C(C(=O)NCc1ccc(F)cc1)c1cccs1 (configuration not stated)	5814	5.3	7.7	0.7	1.0	-1.3	-2.8
O=C(OC(c1ccccc1)c1nccc2ccccc12)c1ccccc1 (configuration not stated)	2882	35.6	9.7	-3.2	-2.1	1.5	nt
CN1C(=O)C2(Nc3ccccc3-c3nc4ccccc4n32)c2ccccc21 (configuration not stated)	23406*	-15.1	-6.4	-3.9	2.4	-9.2	-1.6
Cc1nc(NC(=O)COC(=O)CCC(=O)c2cccs2)c(Cl)cc1Cl	2005	-9.4	1.6	-0.7	-9.8	-0.5	6.4
CCOc1ccccc1NC(=O)COC(=O)c1cnc(C)cn1	4709	-21.2	7.3	4.1	2.6	0.5	nt
CCN1C(=O)C2C(c3ccc(-c4ccc(F)cc4)c(OC)c3)N[C@@](Cc3ccccc3)(C(=O)OC)C2C1=O (some centres not stated)	nt	nt	-3.4	-4.3	-6.6	0.9	nt
c1ccc(CN(Cc2ccccc2)c2c3c(nc4ncnn24)CCC3)cc1	4121	-10.7	47.5	1.4	-12.5	-14.5	8.8
O=C(CCN1CCN(Cc2ccccc2)CC1)Nc1cccc(Cl)c1	10081	2.4	-4.2	0.4	-6.0	7.2	0.0

(list continues)
SMILES	Autofluor counter	PrP UTR inh	Sa ugtP lethal	Sa RN4220 lethal	Mtb hypoxia inh	Mtb hypoxia inh growth	BJeLR viability
Cc1cc(C)nc(SCc2ccc(C(=O)N/N=C/c3cccnc3)cc2)n1	4164	-2.8	nt	nt	nt	nt	4.3
CC(C)(C)C1CCC(OC(=O)c2cncc(Br)c2)CC1 (configuration not stated)	3893	5.4	-0.2	0.5	-11.7	2.5	0.9
COc1ccccc1CNC(=O)CCS(=O)(=O)c1ccc2c(c1)CCN2C(C)=O	5162	-18.0	5.4	5.0	6.7	0.1	6.9
Cc1sc2c(c1C)c(=O)n(-c1ccccc1)c1nnc(C)n21	9270	-11.9	2.3	2.6	14.6	6.5	3.3
CC(NC(=O)COc1ccc(C=NNC(=O)CO)cc1)c1ccccc1 (configuration not stated)	nt	nt	3.8	6.2	6.7	7.5	nt
CC(C)=CCc1cc2c(=O)c3c(O)c4c(cc3oc2c(O)c1O)OC(C)C4(C)C (configuration not stated)	nt	nt	61.8	11.7	nt	nt	-2.9
CCOCCc1c(O)nc(SCCOc2ccc(C)c(C)c2)[nH]c1=O	3793	-47.5	5.6	-3.3	-3.7	11.3	5.2
CCc1ccc(CN(C)C(=O)CCc2nnc(-c3ccc(-c4ccccc4)cc3)o2)nc1	3749	-26.8	-1.6	7.4	-2.2	4.0	5.0
COc1ccc(OC)c(-c2cc(C(=O)Nc3cc(C)on3)no2)c1	15347	-20.5	-0.6	1.3	4.2	5.0	8.9
Cc1ccc(-n2cc(CNCCc3cscn3)c(-c3ccc(F)cc3)n2)cc1	5461	-21.2	7.5	0.2	-3.9	-2.5	-0.9
CCOc1cc(C=NNc2nc(-c3cccc(S(=O)(=O)N4CCCC4)c3)cs2)ccc1O	nt	nt	14.6	19.6	20.2	11.3	nt
CC(C)NC(=O)c1c(CSc2ccccc2)noc1C(=O)NCc1ccccc1	4120	-12.9	7.6	1.5	14.1	-1.1	-0.2
O=C(O)COc1ccccc1C=NNC(=O)CN1CCN(Cc2ccc(Cl)cc2)CC1	nt	nt	2.5	3.5	-1.6	5.2	nt
CC(C)(C)C(=O)CSc1ncnc2c1cnn2-c1ccccc1	4189	nt	12.2	6.8	2.6	-4.0	-0.1
C=CCNC(N)=S	5310	9.5	4.5	2.7	0.9	-1.1	9.6
O=C(COc1cccc(C(F)(F)F)c1)Nc1ccc(S(=O)(=O)N2CCCCC2)cc1	?	-10.4	-7.5	-7.8	1.8	3.4	2.3
Cc1ccc(/C=C/C(=O)NC2CCS(=O)(=O)C2)cc1 (configuration not stated)	4280	-20.1	2.6	0.3	11.4	15.1	-2.5
Clc1cccc(OCCCn2ccnc2)c1	4368	7.0	2.1	5.0	nt	nt	-7.9
Oc1c(Cl)cc(Cl)c2cccnc12	2092	-10.1	41.5	56.2	-13.2	-5.5	-2.1
COc1ccc(/C=N/NC(=O)Cn2nc([N+](=O)[O-])cc2C)c(OC)c1OC	4088	-23.2	nt	nt	nt	nt	-3.6
COc1ccc(S(=O)(=O)N2CCCCC2)cc1NC(=O)c1cccnc1SC	3377	-13.6	4.0	3.1	-3.0	0.2	16.4
CC(C)NC(=O)NC(=O)COC(=O)c1cc[n+]([O-])cc1	4115	-6.0	0.2	0.5	-5.6	-9.0	-3.3
CCc1nccn1S(=O)(=O)c1ccc2ccc(C)cc2c1	4785	-28.8	-6.8	1.9	nt	nt	nt
O=c1c2ccccc2nc2ccc(N3CCOCC3)nn12	3069	-46.4	3.1	4.0	3.4	3.2	1.8
COc1ccc(N2C(=O)CC(Sc3ncn[nH]3)C2=O)c(OC)c1 (configuration not stated)	4397	-27.2	29.1	18.9	16.4	-1.5	-2.8
COc1ccc(C2CC(c3cccs3)=NN2c2ccc(C=O)cc2)cc1 (configuration not stated)	nt	nt	3.2	-12.9	7.5	0.6	-7.4
CCN(CC)S(=O)(=O)c1ccc(Cl)c(NC(=O)COC(=O)c2nc3nc(C)cc(C)n3n2)c1	4003	-1.0	2.8	2.5	0.6	16.1	nt
N/C(=N\OC(=O)CCC1CCCCC1)c1cccnc1	21493*	-20.9	-5.9	5.7	10.6	8.6	1.5
CC(NC(=O)Nc1nccs1)(C(F)(F)F)C(F)(F)F	2839	2.3	0.6	2.2	2.4	4.9	-4.2

From PubChem BioAssay
